High-throughput results as filed in PubChem.
MLL AF4-AF9 inh – MLL-AF4/AF9 protein interaction inhibition; inhibition, % at 10 µM; 350,000 compounds, 0.47% hits; AlphaScreen, biotin-AF4 peptide binding to FLAG-AF9; P42568;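 active means every replicate reaching a set inhibition limit, whatever the replicate mean, cut at about 25% in these data; inconclusive means mean inhibition reaches that limit but some replicates miss it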;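 further: 0% = plate neutral control median and 100% = total signal loss; the record names both 10 and 1 µM as test concentration; the first replicate is given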
RanGTP-Impb inh – inhibitors of RanGTP-importin-beta interaction, primary screen, biochemical, FRET, CFP-Ran, YFP-importin-beta, homogeneous; cell-free CFP-Ran/YFP-importin-beta FRET ratio; inhibition, % (concentration not given with the values); 300,000 compounds, 1.1% hits; AID 2216;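 active means most replicates above 15%; inconclusive means exactly half above 15%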;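 further: 0% = DMSO wells and 100% = Ran loaded with GDP instead of GTP; wells of about 40 µL received 100 nL stock; the first replicate is given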
FGF22 binding – binders of recombinant human FGF22 by thermal shift; Q9HCT0; SYPRO orange fluorescence; percent of sucrose octasulfate shift, DMSO zero; calls only at 9.99 µM; 340,000 compounds, 1.5% hits; AID 651658;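 active means melting point raised past a set limit in the mean and every replicate; inconclusive means no clear call; three in four hits are not shown here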
Target sequence (Q9HCT0 whole entry, looked up): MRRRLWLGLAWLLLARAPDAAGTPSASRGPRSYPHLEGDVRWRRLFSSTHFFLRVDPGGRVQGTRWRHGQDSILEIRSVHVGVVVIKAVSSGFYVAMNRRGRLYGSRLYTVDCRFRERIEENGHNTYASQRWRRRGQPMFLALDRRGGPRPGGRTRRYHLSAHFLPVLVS
HNF4A DNA FP – change in binding of human HNF4 alpha to DNA. P41235. HNF4a-FITC DNA binding, fluorescence polarization, 1 h. activity change, % at 10 µM. 360,000 compounds, 0.3% hits; in the data active means activity change above about 30%, passing the limit was not always enough;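 further: controls were the assay level and a saturating level of protein; the project sought stronger binding though the title names inhibitors; some compounds called inactive have numbers as strong as hits; positive values seem to mean higher polarization but the record does not say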
Target sequence (P41235 whole entry, looked up): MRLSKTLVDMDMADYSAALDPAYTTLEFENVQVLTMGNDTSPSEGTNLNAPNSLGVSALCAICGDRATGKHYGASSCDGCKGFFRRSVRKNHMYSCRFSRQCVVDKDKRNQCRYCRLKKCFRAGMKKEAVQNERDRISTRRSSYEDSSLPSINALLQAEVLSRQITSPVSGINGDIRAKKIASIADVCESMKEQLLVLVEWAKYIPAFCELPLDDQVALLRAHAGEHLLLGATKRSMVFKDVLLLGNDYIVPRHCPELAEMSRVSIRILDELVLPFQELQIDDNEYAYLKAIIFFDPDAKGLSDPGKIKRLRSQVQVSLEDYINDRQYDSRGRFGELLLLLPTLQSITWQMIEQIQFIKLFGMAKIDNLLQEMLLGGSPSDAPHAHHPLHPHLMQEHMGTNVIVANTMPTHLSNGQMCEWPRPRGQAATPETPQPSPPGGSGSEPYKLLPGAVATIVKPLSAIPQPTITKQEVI
Vif A3G – HIV-1 Vif–A3G interaction blockers – biochemical, TR-FRET, GST-Vif 1-94, biotin-A3G peptide, dose response retest, primary screen (AID 1117319) | one-dose inhibition, %; IC50 in µM for titrated hits | 260,000 compounds, 0.57% hits | TR-FRET GST-Vif / biotin-A3G peptide binding; higher % means a stronger effect; test concentration not given here; strong numbers were not always called active;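 active means above the screen mean plus three standard deviations and confirmed in dose response; inconclusive means results disagree or hit not tested in dose response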;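 further: Vif residues 1-94 fused to GST binding biotinylated APOBEC3G peptide 110-148; 0% = full assay without inhibitor and 100% = GST in place of GST-Vif; retest series ran down from 100 µM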
UCH37 DUB inh – inhibitors of human deubiquitinating enzyme UCH37; purified proteasome/UCH37, Ub-AMC cleavage fluorescence; inhibition, % (test concentration not listed); 330,000 compounds, 0.33% hits;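 active means mean of two replicates above 20%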;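 further: 0% = compound-free wells with enzyme and 100% = wells lacking proteasome; stock transfer was 100 nL into about 20 µL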
Target sequence (Q9Y5K5 whole entry, looked up): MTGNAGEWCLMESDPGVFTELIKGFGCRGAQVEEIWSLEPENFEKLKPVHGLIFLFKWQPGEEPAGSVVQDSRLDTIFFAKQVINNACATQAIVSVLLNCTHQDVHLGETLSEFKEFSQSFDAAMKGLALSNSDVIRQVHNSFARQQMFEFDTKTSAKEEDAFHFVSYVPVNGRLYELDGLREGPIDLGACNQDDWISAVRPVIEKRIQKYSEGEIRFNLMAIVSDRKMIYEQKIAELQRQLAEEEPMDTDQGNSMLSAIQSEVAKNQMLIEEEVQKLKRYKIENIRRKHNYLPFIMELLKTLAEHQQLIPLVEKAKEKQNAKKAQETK
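assay system = human UCH37 enzyme supplied as purified proteasome complex | amount = proteasome at 0.15 nM in the dispensed enzyme solution | schedule = 30 min compound-proteasome preincubation then 25 min substrate reaction, room temperature | measured by = fluorescence, ex 355 nm, em 460 nm | benchmarks = no-proteasome wells (full inhibition) and compound-free wells (no inhibition)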
Ecoli growth – inhibitors of Escherichia coli growth. OD600, 23 h; hits give low values. OD600 absorbance (concentration not given with the values). 330,000 compounds, 0.21% hits. AID 1053175;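 active means OD600 absorbance below the run mean of sample wells minus 3.6 SD, in any replicate, cut at about 0.56 in these data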;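 further: stock transfer was 300 nL into about 60 µL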
An asterisk follows results filed as active; i = inactive; ? = inconclusive; · = not tested or not shown; & = joins results of further samples. Some of the compounds tested; count on the stated rates, not on these rows.

Ecoli growth	structure	RanGTP-Impb inh	UCH37 DUB inh	HNF4A DNA FP	FGF22 binding	MLL AF4-AF9 inh	Vif A3G
·	CCOC(=O)[C@H]1[C@H]2COc3ccc(OC)cc3[C@@H]2N2C(=O)c3ccc(C)cc3NC(=O)[C@@]12C	·	-1.4	4.0	i	-0.4	·
0.68	CCNC(=S)N(CCc1c(C)[nH]c2ccc(C)cc12)Cc1ccco1	?	4.0	15	i	3.7	16%
0.71	NS(=O)(=O)c1ccc(CCNC(=O)c2ccc(Cl)cc2[N+](=O)[O-])cc1	1.2	2.0	-5.4	·	0.6	6%
0.65	FC(F)(F)c1ccc(CSc2ccccn2)cc1	1.9	2.5	1.7	i	0.6	-10%
0.68	O=C(CSc1nnc(CNC(=O)c2cccs2)o1)Nc1cccc(C(F)(F)F)c1	5.1	0.3	-4.8	·	·	-7%
0.69	O=C(OCC(=O)N1CCN(C(=O)c2ccco2)CC1)c1cc(S(=O)(=O)Nc2ccc(Cl)cc2)ccc1O	-3.9	-11	-2.2	i	-1.6	10%
0.7	CCN(C(=O)CSc1nnc(-c2ccccc2Cl)n1C1CCCC1)C1CCS(=O)(=O)C1 (stereo not given)	-1.3	1.5	1.7	·	·	-1%
0.7	O=C(CSc1nc(Nc2ccccc2)nc(N2CCOCC2)n1)Nc1ccc2c(c1)OCCO2	1.6	0.2	3.9	·	·	0%&-6%
0.67	CCCC(=O)Oc1ccc2c(C)cc(=O)oc2c1	?	i	6.6	i	0.0	·
·	Cc1ccccc1C#CC1=CC(=O)CC(C)(C)C1	·	·	-6.2	i	0.6	-2%
·	COc1ccc2cc1Oc1ccc(cc1)C[C@H]1c3cc(c(OC)cc3CCN1C)Oc1c(OC)c(OC)cc3c1[C@@H](C2)N(C)CC3	·	1.4	2.5	i	0.6	·
0.7	O=S(=O)(c1cccc(-c2nn3c(-c4ccncc4)nnc3s2)c1)N1CCOCC1	11	1.3	·	·	·	4%
·	Cn1cnc(S(=O)(=O)N2CCN(c3ccc(Cl)cc3)CC2)c1	18*	·	-2.9	i	2.5	·
0.66	O=S(=O)(c1ccccc1)N1CCN(CC(O)COc2ccc3c(c2)CCC3)CC1 (stereo not given)	-7.2	0.9	-1.2	·	·	-1%
0.71	CCOC(=O)C1=CN(Cc2cccc(F)c2)S(=O)(=O)NC1CCc1ccccc1 (stereo not given)	·	0.5	1.9	i	-5.5	0%
0.71	O=P(COc1ccccc1)(c1ccccc1)c1ccccc1	0.1	-0.4	-2.6	·	·	-4%
0.65	COc1ccc(C2=NN(C(=O)CCC(=O)O)C(c3cccs3)C2)cc1OC (stereo not given)	8.7	-25	0.2	i	0.0	-4%
·	C=CCOC(=O)C(=O)/C=C/c1ccc2c(c1)Cc1ccccc1-2	-0.9	2.4	1.1	i	1.4&0.4	4%
0.78	CC(=O)c1ccc(NC(=O)C(C)n2nc(-c3ccccc3)c3cc(Cl)ccc32)cc1 (stereo not given)	1.3	-3.1	2.3	i	-3.6	·
0.66	O=C(NC(=S)N1CCCc2ccccc21)c1ccc(Br)cc1	7.0	-2.7	1.5	·	·	-11%

Looked up above.
Reading of O=C(CSc1nnc(CNC(=O)c2cccs2)o1)Nc1cccc(C(F)(F)F)c1 in UCH37 DUB inh: 0.3
Reading of CCN(C(=O)CSc1nnc(-c2ccccc2Cl)n1C1CCCC1)C1CCS(=O)(=O)C1 (stereo not given) in HNF4A DNA FP: 1.7

The results go on:
Ecoli growth	structure	RanGTP-Impb inh	UCH37 DUB inh	HNF4A DNA FP	FGF22 binding	MLL AF4-AF9 inh	Vif A3G
0.69	Cc1ccc(-c2nnc(N3CCCCC3)c3ccccc23)cc1S(=O)(=O)N1CCN(C)CC1	1.9	5.4	0.1	·	·	-8%
0.66	C=CCS(=O)(=O)N1CCC(CCOc2ccccc2)(C(=O)OCC)CC1	?	0.0	-0.2	i	-2.9	1%
·	O=C(NC(C(=O)O)c1ccccc1)c1ccccc1 (stereo not given)	-0.9	·	2.0	i	-1.5	23%
0.69	O=C(CSCC(=O)NC1CCCC1)Nc1ccccc1	5.3	4.9	2.6	i	-1.0	-3%
·	C[C@H]1CN([C@@H](C)CO)C(=O)CCCn2nncc2CO[C@H]1CN(C)S(=O)(=O)c1ccc(-n2cccn2)cc1	·	·	-1.2	i	-0.7&-1.0	4%
0.71	Cn1c(=O)n(C)c2cc(CNc3ccc(N4CCOCC4)c(C(=O)O)c3)ccc21	5.7	-15	-0.8	·	·	?
0.7	Cc1ccc(S(=O)(=O)N(CC(=O)Nc2cccc(N(C)S(C)(=O)=O)c2)c2ccc(Cl)c(Cl)c2)cc1	2.4	3.3	-1.1	·	·	2%
0.7	COc1ccc(NC(=O)c2cc(NC(=O)C3CCCCC3C(=O)O)ccc2N2CCOCC2)cc1 (stereo not given)	-1.6	-1.0	-1.4	i	-0.5	·
0.67	COc1cc(NC(=O)C2=C(N3CCOCC3)/C(=C/c3ccc(Cl)cc3)CC2)cc(OC)c1OC	-1.0	-0.2	-1.2	i	-3.2	·
0.64	COc1ccc(-c2nc(C(=O)NCCCN3CCOCC3)cc3c2[nH]c2ccccc23)cc1OC	5.9	-110	-0.1	i	8.8	·
0.61	C=CCn1c(SCC(=O)Nc2ccccc2OC)nnc1-c1ccccn1	-1.8	1.7	1.6	·	·	19%
0.68	CCCC(=O)Nc1nc2ccc(NC(=O)c3cccnc3)cc2s1	?	2.9	0.6	·	-6.3	17%
0.73	CCN(CC)CCOC(=O)C1(c2ccccc2)CCOCC1	1.5	4.5	-1.9	·	·	?
0.7	Cn1ncc(Br)c1C(=O)NC12CC3CC(CC(C3)C1)C2	-2.9	5.9	-2.2	i	-1.8	-1%
0.63	NS(=O)(=O)c1ccc(CCNC(=O)c2ccc(=O)[nH]c2)cc1	-4.3	2.2	1.7	i	-1.3	3%
0.68	O=C(Nc1ccon1)c1ccccc1Cl	-1.9	1.6	-3.8	·	·	-7%
0.69	CCn1c(C)c(C(C)=O)c(N2CCN(c3cccc(Cl)c3)CC2)nc1=S	29*	7.5	4.3	·	·	10%
0.68	CCCS(=O)(=O)N1CCCC(c2nc(-c3ccc(OC)cc3)no2)C1 (stereo not given)	5.4	3.1	1.9	i	-4.8	-1%
0.66	Fc1cccc(CN2CCC(Cc3ccccc3)CC2)c1	0.7	1.5	-1.9	i	-0.1	·
0.78	c1csc(CSc2nnc3sc4ccccc4n23)c1	-0.9	5.0	-6.9	·	·	2%
·	Cc1noc(C)c1NC(=O)N1C[C@H](O)COC[C@H]2O[C@@H](CC(=O)NCC3CCCCC3)CC[C@@H]21	·	·	1.2	i	-0.6	·
0.76	NC(=O)c1cccc2c1C(=O)N(C1CCCCC1)C2	-0.2	2.1	0.1	i	-14	?
0.71	Cc1cccc(OCCC(=O)Nc2ccc(C)c(S(=O)(=O)N3CCCCC3)c2)c1	0.6	5.6	-3.2	i	1.1	-2%
·	O=C(O/N=C/c1ccc2c(c1)OCO2)c1ccc([N+](=O)[O-])cc1	-0.7	·	-1.8	i	0.9	0%
·	CC(=O)C1=C(O)C(=O)N(c2ccc(O)cc2)C1c1ccc([N+](=O)[O-])cc1 (stereo not given)	2.8	·	-1.5	i	-0.5	-4%
·	Cc1cc(C)n2nc(SCC(=O)N/N=C/c3cccc(Br)c3)nc2n1	0.0	·	3.1	i	7.1	3%
0.7	Cc1nc2ccc(NC(=O)[C@@H](NC(=O)c3c(F)cccc3F)C(C)C)cc2s1	·	0.1	32	i	2.0	-12%
0.68	Cc1cccc(-n2c(O)c(C=NCCCN3CCOCC3)c3ccccc3c2=O)c1	4.8	4.8	2.9	·	·	2%
0.71	CCOC(=O)c1csc(NC(=O)CSc2nnnn2-c2ccc(OC)c(OC)c2)n1	1.3	2.1	-0.9	·	·	-12%
0.75	CS(=O)(=O)c1ccc(N2CCOCC2)c(S(C)(=O)=O)c1	2.9	-1.9	-0.5	i	1.4	2%
0.65	O=C1N=C(N2CCOCC2)SC1=C1CCCCC1	0.1	-0.1	-1.2	·	·	?
·	CCN(CC)c1ccc(/C=N/NC(=O)c2c(-c3ccccc3)noc2C)cc1	0.1	·	1.0	i	12	-6%
0.65	COc1cccc2c(=O)cn[nH]c12	0.2	i	4.1	·	·	?
·	CCOC(=O)c1c(NC(=O)CN2CCN(S(=O)(=O)c3cc(Cl)ccc3Cl)CC2)sc(C(=O)N(C)C)c1C	·	·	6.7	i	4.4	·
0.7	CN(C)c1ccc(S(=O)(=O)N2CCCCC2)cc1NC(=O)C1=COCCO1	-4.8	-1.3	5.6	i	0.6	-7%
0.69	c1ccc(-n2c(-c3ccco3)nnc2N2CCOCC2)cc1	2.8	-0.2	1.4	·	·	24%
0.74	Cc1ccc(OCCn2c(=S)[nH]c3ccccc32)c(C(C)C)c1	5.1	0.9	-4.8	i	-6.4	-13%
0.65	CCCS(=O)(=O)c1nc(S(=O)(=O)c2ccc(C)cc2)c(NCc2ccccn2)s1	4.9	0.2	-1.3	i	-1.7	0%
0.78	Cc1ccc(N(CC(O)CN(C)C)S(=O)(=O)c2ccccc2)cc1 (stereo not given)	-0.6	3.4	0.6	·	·	24%
0.72	COc1ccc(C2=NOC3(CC(=O)N(c4ccc5ccccc5c4)C3=O)C2)c(OC)c1 (stereo not given)	-2.7	2.3	-6.7	i	2.6	5%

A different layout for some results above.
SMILES: O=C1N=C(N2CCOCC2)SC1=C1CCCCC1
- Ecoli growth: 0.65
- RanGTP-Impb inh: 0.1
- UCH37 DUB inh: -0.1
- HNF4A DNA FP: -1.2
- FGF22 binding: ·
- MLL AF4-AF9 inh: ·
- Vif A3G: ?
SMILES: CCN(CC)c1ccc(/C=N/NC(=O)c2c(-c3ccccc3)noc2C)cc1
- Ecoli growth: ·
- RanGTP-Impb inh: 0.1
- UCH37 DUB inh: ·
- HNF4A DNA FP: 1.0
- FGF22 binding: i
- MLL AF4-AF9 inh: 12
- Vif A3G: -6%
SMILES: COc1cccc2c(=O)cn[nH]c12
- Ecoli growth: 0.65
- RanGTP-Impb inh: 0.2
- UCH37 DUB inh: i
- HNF4A DNA FP: 4.1
- FGF22 binding: ·
- MLL AF4-AF9 inh: ·
- Vif A3G: ?
SMILES: CCOC(=O)c1c(NC(=O)CN2CCN(S(=O)(=O)c3cc(Cl)ccc3Cl)CC2)sc(C(=O)N(C)C)c1C
- Ecoli growth: ·
- RanGTP-Impb inh: ·
- UCH37 DUB inh: ·
- HNF4A DNA FP: 6.7
- FGF22 binding: i
- MLL AF4-AF9 inh: 4.4
- Vif A3G: ·

Other structures.
Ecoli growth	structure	RanGTP-Impb inh	UCH37 DUB inh	HNF4A DNA FP	FGF22 binding	MLL AF4-AF9 inh	Vif A3G
0.67	Cc1cccc(C(=O)N(Cc2ccco2)c2c(N)n(Cc3ccccc3)c(=O)[nH]c2=O)c1	·	1.2	0.7	i	-2.2	13%
0.7	Cc1cc(C)c2nc(C(F)(F)F)nc(N3CCN(C(=O)c4ccco4)CC3)c2c1	-0.6	-1.3	1.2	·	·	-7%
0.63	COc1ccc(C(=O)NCCCN2CCOCC2)cc1Br	0.7	1.5	0.1	i	-1.5	·
0.68	CN(C1(C)CCS(=O)(=O)C1)S(=O)(=O)c1ccc(F)cc1 (stereo not given)	0.4	-0.4	2.5	i	0.4	·
0.67	CCOC(=O)CSc1nc(=O)n2cccc(C)c2n1	3.3	-4.8	0.4	·	-3.0	-3%
